# Hsc70: Hsc70 inhibitors, probe displacement, primary screen, biochemical, fluorescence polarization (AID 568) | displacement, % at 20 µM; hits with a dose series show IC50 in µM | 83,000 tested, under 10 active | Hsc70 fluorescence polarization, probe displacement; higher % means a stronger effect; strong numbers were not always called active;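 active = displacement above 50% without optical interference and an IC50 on retest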;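 also: ATPase domain with a fluorescein-tagged ATP probe; 0% = vehicle and 100% = excess ADP; read after one hour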
# MT1-MMP promoter: inhibitors of MT1-MMP promoter transcription, cell-based, luciferase reporter, luminescence (AID 618); MT1-MMP promoter luciferase reporter cells, luminescence; calls from a first round at 10 µM; hits with a dose series show EC50 in µM; 0.62% of 87,000 active;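 active = over half of the reporter light lost at 10 µM or EC50 under 50 µM; inactive = the rest and hits that failed the dose series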;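 also: actives suppress MT1-MMP promoter-driven transcription so potencies describe inhibitors; HT1080 fibrosarcoma cells; overnight exposure; toxic or luciferase-blocking compounds were not removed from the actives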
# WNV NS2B-NS3 inh: inhibitors of West Nile virus NS2B-NS3 protease; WNV NS2B-NS3 protease, fluorogenic substrate Ex360/Em465; active compounds read low; z-score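 (tested at a level between 10 and 100 µM)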; 0.18% of 65,000 active;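 active = z-score at -3 or under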;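 also: score is relative to mean and spread of the compound wells of a plate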
# Target sequence (P06935 1371-1501 limits assumed): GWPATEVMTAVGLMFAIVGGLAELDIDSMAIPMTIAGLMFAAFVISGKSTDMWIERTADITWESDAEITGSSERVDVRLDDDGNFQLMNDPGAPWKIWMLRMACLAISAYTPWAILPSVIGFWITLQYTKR
# Target sequence (P06935 1502-1679 limits assumed): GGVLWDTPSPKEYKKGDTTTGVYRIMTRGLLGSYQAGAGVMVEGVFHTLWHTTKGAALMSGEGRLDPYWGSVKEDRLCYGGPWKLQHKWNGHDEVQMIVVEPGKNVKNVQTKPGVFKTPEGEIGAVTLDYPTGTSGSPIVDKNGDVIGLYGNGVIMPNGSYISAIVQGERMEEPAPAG
# Starred values were filed as active, the others as inactive; i = inactive; / = no result given. These rows are one share of the data. The share of hits here may be higher or lower than overall.
SMILES,Hsc70,MT1-MMP promoter,WNV NS2B-NS3 inh
COCc1cc(C)c(C#N)c(=S)[nH]1,-2.6%,i,2.5
CCOC(=O)CSc1nnc(-c2nnc(SCC(=O)OCC)n2CC)n1CC,-5.0%,i,0.1
O=C(NCCN1CCN(c2ccccc2)CC1)C1CCN(S(=O)(=O)c2cccs2)CC1,-2.8%,i,-0.94
CCOC(=O)c1c(C)[nH]c(C(=O)COC(=O)C2CC2C)c1C (stereo unspecified),-0.7%,i,-0.64
CCCS(=O)(=O)N1CCC(C(=O)NCCc2ccccc2)CC1,-5.3%,i,0.89
Cc1ccnc(SCCn2c(N3CCOCC3)nc3c2c(=O)[nH]c(=O)n3C)n1,6.2%,i,-0.52
COc1ccccc1C(=O)OCC(=O)Nc1ccc(OC(F)F)cc1,4.6%,i,-0.53
O=C(CSc1nnc(Cc2cccs2)n1-c1ccccc1)Nc1ccc2c(c1)OCCO2,5.9%,i,0.51
O=C(Nc1ccc(N2CCOCC2)cc1)Nc1cnsn1,-2.9%,i,-0.05
Cc1cc(C)c(C#N)c(SCCS(=O)(=O)Cc2ccc(Cl)cc2)n1,-1.7%,i,/
COc1ccc(C2CC(c3ccccc3)n3nc(NC(=O)c4cccs4)nc3N2)cc1 (stereo unspecified),-1.3%,i,0.17
O=C(Cn1cnc2c(nnn2-c2ccc(F)cc2)c1=O)N1CCCC1,0.9%,i,0.57
COc1cc(NC(=O)Cn2ncc3c2-c2ccccc2OC3)cc(OC)c1OC,-1.0%,i,-0.03
O=C(CN(Cc1ccccc1)S(=O)(=O)c1ccc(Br)cc1)NCc1ccco1,-4.8%,i,/
CCN(CC)S(=O)(=O)c1cccc(C(=O)NC(C(=O)Nc2nnc(C3CC3)s2)C(C)C)c1 (stereo unspecified),3.0%,i,-0.4
COC(=O)c1[nH]cnc1C(=O)c1ccccc1,-5.1%,i,-0.93
CN(CCO)C1=CC(=O)CC(C)(C)C1,-2.4%,i,/
CC(C)(C)c1ccc(OCC(=O)NCCN2CCCC2)cc1,-0.4%,i,/
Cc1ccc(-c2ccccc2NC(=O)CCl)o1,-5.1%,i,/
O=C(Nc1ccn(C2CC(OC(=O)c3ccccc3)C(CO)O2)c(=O)n1)c1ccccc1 (stereo unspecified),3.0%,i,-0.35
CC(NC(=O)c1ccc(CS(=O)(=O)c2cccc(C(F)(F)F)c2)o1)c1ccc2c(c1)OCCO2 (stereo unspecified),-1.8%,i,/
N#CC1=C(N)N(c2ccccc2C#N)C2=C(C(=O)CCC2)C1c1ccsc1 (stereo unspecified),5.9%,i,-0.72
C#CCOc1c(Br)cc(/C=N/O)cc1OCC,-3.1%,i,/
O=C(O)c1ccc(NCc2ccncc2)cc1,-0.3%,i,/
CCOC(=O)C1CCN(C(=O)Nc2ccc(NC(=O)C3CCN(C(=O)OCC)CC3)cc2)CC1,-2.8%,i,-0.9
O=C(Nc1nnc(C(F)(F)F)s1)c1cccnc1,-4.2%,i,0.77
CCOC(=O)C1CCN(Cc2ccc(C(=O)OC)cc2)CC1,2.6%,i,0.53
COc1ccc(-c2c(C)n([O-])c(C)c(C)[n+]2=O)cc1OC,-13%,i,0.82
CC(=O)NCCN=C(C)c1sc2ccccc2c1O,-0.6%,i,1.2
N#Cc1ccc(-c2ccc3c(c2)OCO3)nc1SCC(=O)OCc1ccccc1,-9.1%,i,/
O=c1oc2ccc3ccccc3c2cc1-c1nnc(-c2ccccc2)o1,-0.3%,i,0.32
CC(C)NC(=O)CSc1nc(-c2cccs2)cc(-c2ccccc2)c1C#N,-4.2%,i,/
CCOc1ccc(N(CC(=O)Nc2cccc(F)c2)S(=O)(=O)c2c(C)noc2C)cc1,1.8%,i,-0.89
O=C(CC1N=C2c3ccccc3N=C(SCc3ccc(Cl)cc3)N2C1=O)NCc1ccco1 (stereo unspecified),2.4%,i,0.91
C=C(C)CSc1nnc(-c2cccc(S(=O)(=O)N(C)C)c2)n1-c1cc(OC)ccc1OC,0.7%,i,0.67
CN1CCN(S(=O)(=O)c2ccc(-c3noc(C4CCN(S(C)(=O)=O)CC4)n3)cc2)CC1,-6.9%,i,0.02
COc1ccc(S(=O)(=O)N(C)CC(=O)NCCC2=CCCCC2)cc1OC,-0.3%,i,/
CC(Oc1ccc(Cl)cc1Cl)C(=O)Nc1ccc2oc(-c3ccncc3)nc2c1 (stereo unspecified),0.5%,i,0.4
N#C/C(=C1\CCCN1)c1nc2ccccc2c(=O)[nH]1,-4.7%,i,1.3
COCCn1c(=NC(=O)c2ccc3c(c2)OCO3)c(C#N)cc2c(=O)n3cccc(C)c3nc21,-5.2%,i,-0.29
O=C(CNS(=O)(=O)c1ccc(Br)cc1)N1CCN(c2ccc(F)cc2)CC1,1.5%,i,/
Nc1nc(NCc2ccco2)nn1-c1ccccc1,2.2%,i,-0.05
C=CCn1c(-c2ccc(Cl)cc2)c[nH]c1=S,-4.6%,i,-0.47
Cc1ccc(C(=O)N2CCN(S(C)(=O)=O)C2)cc1,-4.9%,i,0.56
COCCCn1c(-c2ccc(Cl)cc2)n[nH]c1=S,2.2%,i,/
O=C(O)CCN(CCC(=O)O)c1ccccc1,4.7%,i,-0.72
Cn1cccc1Cc1nnc(SCC(=O)NCc2ccc3c(c2)OCO3)n1CCc1ccccc1,-4.6%,i,-0.07
CCOc1cc(C)nc(N2CCCC(C(=O)NCc3ccccc3F)C2)n1 (stereo unspecified),-6.6%,i,-1.1
CCOC(=O)CCCCNCc1ccccc1,-2.3%,i,0.24
CCOC(=O)C(NC(C)=O)(Nc1cccc(F)c1)C(F)(F)F (stereo unspecified),-0.6%,i,-1.2
CCOC(=O)C1CCN(c2nc3ccccc3nc2C(C#N)C(=O)OCCOC)CC1 (stereo unspecified),12%,i,0.37
CCCc1nc2ccc(NC(=O)NCCC(=O)OCC)cc2c(=O)n1Cc1ccc(Cl)cc1,2.2%,i,/
O=C(Nc1ccc(N2CCOCC2)cc1)Nc1ccc2nc(-c3ccco3)c(-c3ccco3)nc2c1,-0.8%,i,0.06
O=S(=O)(c1cccc2cccnc12)N1CCOCC1,0.0%,i,3.1
CCn1nccc1C(=O)NC1=C(C#N)CCC1,-0.3%,i,-0.05
COc1ccc(Br)cc1-c1nc(C)c(C(C)=O)n1O,-5.1%,i,-1.2
O=C(CCCCn1c(=O)c2ccccc2n(Cc2ccc(Cl)cc2)c1=O)NCc1ccco1,-3.5%,i,0.71
COc1ccc(OC)c(C2C(C(=O)N(C)C)=C(C)Nc3nc4ccccc4n32)c1 (stereo unspecified),-0.5%,i,0.96
CCCCn1c(Cl)nc2c1c(=O)n(C)c(=O)n2C,3.2%,i,-1.4
Cc1ccc(CCNC(=O)CCNS(=O)(=O)c2ccc3c(c2)c(=O)n(C)c(=O)n3C)cc1,-1.5%,i,-0.21

# One compound at a time (already shown). Screens in order: Hsc70, MT1-MMP promoter, WNV NS2B-NS3 inh
# CC(C)NC(=O)CSc1nc(-c2cccs2)cc(-c2ccccc2)c1C#N across the screens: -4.2%, i, /
# CCOC(=O)CCCCNCc1ccccc1 across the screens: -2.3%, i, 0.24
# Cc1ccc(CCNC(=O)CCNS(=O)(=O)c2ccc3c(c2)c(=O)n(C)c(=O)n3C)cc1 across the screens: -1.5%, i, -0.21
# O=C(Cn1cnc2c(nnn2-c2ccc(F)cc2)c1=O)N1CCCC1 across the screens: 0.9%, i, 0.57
# Cc1ccc(-c2ccccc2NC(=O)CCl)o1 across the screens: -5.1%, i, /

# More entries.
SMILES,Hsc70,MT1-MMP promoter,WNV NS2B-NS3 inh
COc1ccc(-c2ccc(-c3noc(-c4ccccc4C)n3)c(OC)n2)cc1,-16%,i,-1.1
O=C(NC(Cc1ccccc1)C(=O)NCc1ccccn1)c1ccco1 (stereo unspecified),-8.1%,i,-0.46
Cc1cccc2c(=O)oc(-c3ccc4c(c3)C(=O)N(CC3CCCO3)C4=O)nc12 (stereo unspecified),0.5%,i,0.1
COCCOCC(O)CN1CCN(c2ccccc2)CC1 (stereo unspecified),-3.8%,i,-1.2
O=C1CCCc2c1[nH]c1ccc(Br)cc21,-2.4%,i,0.46
CCOc1ccc(C(=O)N2CCN(C(=O)c3ccco3)CC2)cc1OCC,1.9%,i,0.68
CC(=O)NCCn1c(SCC(=O)c2ccc(Cl)cc2)nc2ccccc2c1=O,4.6%,i,/
O=C1NCCN1C(=O)c1cccc(Cl)c1,-1.8%,i,0.27
CC(NC(=O)Nc1nnc(C(F)(F)F)s1)(C(F)(F)F)C(F)(F)F,-1.0%,i,0.41
O=C(CSc1nnc(-c2ccncc2)n1Cc1ccccc1)NCCc1ccccc1,-2.7%,i,/
C=CCc1c(C)nc(C)nc1N/N=C/c1ccc(N(C)C)cc1,-3.4%,i,/
COc1ccccc1OCCn1cc(C#N)c2ccccc21,-1.4%,i,/
Cc1c(CN(C)C(=O)CSc2nc(-c3ccco3)cc(C(F)(F)F)n2)cnn1C,2.0%,i,0.03
CCn1ncc(C2=NOC(C(=O)NCc3ccccc3)C2)c1C (stereo unspecified),6.1%,i,-0.45
O=C(O)c1ccc(NCc2ccc3c(c2)OCO3)cc1,-1.7%,i,-0.49
CCCSc1nnc(N2C(=O)CC(c3ccsc3)C3=C2CCCC3=O)s1 (stereo unspecified),-0.6%,i,0.4
Nc1ccc2[nH]ncc2c1,-3.8%,i,-0.26
Cc1ccccc1OCC(=O)NC(=S)Nc1ccc2c3c(cccc13)CC2,-6.3%,i,/
O=c1c(-c2ccc3c(c2)OCCO3)coc2c(CN3CCOCC3)c(O)ccc12,3.0%,i,-0.88
CCCCC(=O)c1c(O)c2ccccc2oc1=O,-8.7%,i,-0.49
CC(NC(=O)CSc1nnc(-c2cccc(S(=O)(=O)N3CCCCC3)c2)o1)C12CC3CC(CC(C3)C1)C2 (stereo unspecified),0.2%,i,/
Cc1ccc(-n2c(C)cc(C(=O)CSc3nnnn3C)c2C)cc1,-2.0%,i,-0.72
O=S(=O)(c1cccs1)N1CCN(c2ncccn2)CC1,-4.6%,i,1.4
CS(=O)(=O)N(CC(=O)NCc1ccccn1)c1ccc2c(c1)OCCO2,12%,i,-0.04
Cn1c(SCC(=O)NC2CCCC2)nc2cccnc21,-4.3%,i,-0.4
Cc1ccc2[nH]c(=O)c(C(c3nnnn3CC3CCCO3)N3CCCc4ccccc43)cc2c1 (stereo unspecified),0.0%,i,0.94
Cc1ccc(-n2nnnc2SCC(=O)NCCC2=CCCCC2)c(C)c1,1.3%,i,1.3
Clc1ccccc1OCCN1CCCCC1,-2.6%,i,0.48
O=C(Nc1ccccc1C(=O)OCn1nnc2ccccc2c1=O)c1ccco1,3.1%,i,0.8
CCOC(=O)N1CCN(C2=NC3(CCCCC3)C(C#N)C(=O)N2)CC1 (stereo unspecified),1.9%,i,1
Cc1ccc(CNC(=O)COC(=O)c2c(C)noc2C)cc1,3.1%,i,0.6
O=S(=O)(c1ccc(S(=O)(=O)N2CCCN(Cc3ccccc3)C2)cc1)N1CCCCCC1,0.6%,i,-0.69
CC(C)(C)OC(=O)N[C@@H](Cc1ccccc1)c1nnc(SCC(=O)c2ccc(Cl)cc2)o1,1.2%,i,/
COC(=O)c1ccc(-n2nnnc2SCC(=O)Nc2cc(OC)ccc2OC)cc1,-1.0%,i,0.47
CCCCNC(=O)c1c(C)cc(=O)oc1C,1.2%,i,-0.76
O=C(Cc1cccs1)Nc1ccon1,2.9%,i,-0.78
O=C(NCCc1ccccc1)C1CCCN1C(=O)Nc1ccc(F)cc1 (stereo unspecified),2.9%,i,-0.18
COc1cccc(-c2nn(C)c3sc(C(=O)NCc4ccco4)cc23)c1,7.9%,i,-0.13
O=C(CCCn1c(=S)[nH]c2ccsc2c1=O)NCc1ccco1,-5.7%,i,-0.01
CCN1CCN(C(c2cc3cccc(C)c3[nH]c2=O)c2nnnn2Cc2ccccc2)CC1 (stereo unspecified),-0.2%,i,-0.51
Cc1sc(-c2ccncc2)nc1OC(=O)c1ccc(Cl)cc1,-0.4%,i,/
Cc1ccccc1C(=O)NC1CCN(Cc2nnnn2C2CCCC2)CC1,2.7%,i,/
Cc1ccc(Cn2ncc3c(N4CCN(Cc5ccc(Cl)cc5)CC4)ncnc32)cc1,5.1%,i,0.23
O=C(Nc1ccc(Br)cc1F)c1sccc1-n1cccc1,-1.6%,i,-0.03
O=C(O)c1cccc(-c2nnn(Cc3ccccc3Cl)n2)c1,-2.6%,i,/

# Of the compounds above, these contain a COOH group.
SMILES,Hsc70,MT1-MMP promoter,WNV NS2B-NS3 inh
O=C(O)c1ccc(NCc2ccncc2)cc1,-0.3%,i,/
O=C(O)CCN(CCC(=O)O)c1ccccc1,4.7%,i,-0.72
O=C(O)c1ccc(NCc2ccc3c(c2)OCO3)cc1,-1.7%,i,-0.49
O=C(O)c1cccc(-c2nnn(Cc3ccccc3Cl)n2)c1,-2.6%,i,/

# Carrying on:
SMILES,Hsc70,MT1-MMP promoter,WNV NS2B-NS3 inh
COc1cccc(OCC(O)CN2CCC(Cc3ccccc3)CC2)c1 (stereo unspecified),1.0%,i,-0.26
CC(=Nc1ccc(C)c(C)c1)C1=C(O)CCC1=O,-0.8%,i,-0.61
Cc1csc(NC(=O)c2ccco2)n1,1.4%,i,-0.42
COc1ccc2cc(C(=O)NCc3ccco3)c(=O)oc2c1,-0.2%,i,-0.04
COc1cc(OC)c(Nc2cc(C)nc3nc(C)nn23)cc1Cl,-3.1%,i,-0.76
COc1ccc(-c2noc(CCCOc3ccc(Cl)cc3Cl)n2)cc1,4.9%,i,/
N#CCCn1cc(C(CC(=O)c2ccccc2)C(=O)O)c2ccccc21 (stereo unspecified),-2.6%,i,-0.86

# Screening results from PubChem.
